Screening data deposited in PubChem BioAssay by National Center for Advancing Translational Sciences (NCATS).
miR-21 reporter – qHTS Assay for Modulators of miRNAs and/orActivators of miR-21. AID 2288, 2010. 340,000 tested, under 10 active. Potency, µM (highest dose often 38.3 µM), inactives show at the highest dose reporter change, positive = more light. HeLa miR-21 FLuc reporter, luciferase, 48 h; active = well fitted rising curve with a large enough effect; inconclusive = small, poorly fitted or top-dose-only effect; inactive = no such curve, though single readings can be large or run the other way;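 further: % of control where 0% means no effect; miR-21 action dims this reporter so a rising signal means less miR-21 action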
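Using DMEM plus 10% FBS, HeLa miR-21-FLuc cells are incubated with test compounds (final up to about 40uM) for 48 hours; firefly luciferase signal is then imaged following reagent-mediated lysis.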
Rango dissoc inh – qHTS Assay for Inhibitors of RanGTP induced Rango (Ran-regulated importin-beta cargo) - Importin beta complex dissociation; Snurportin-1 (Homo sapiens) + GTP-binding nuclear protein Ran (Homo sapiens) + Importin …; Biochemical FRET Rango-importin beta, RanGTP-induced dissociation; Potency, µM (titrated, usually from 46.1 µM), without a hit: at the highest dose activity change, negative = inhibition; actives 0.071% (n = 340,000); AID 540253, 2011; active means falling FRET ratio curve, often poorly fitted, with flat reads before Ran was added; inconclusive means other falling curves, or compound fluorescence or quenching; inactive means flat or rising ratio curve;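 further: potency means the concentration at half of the fitted maximal effect; % of control where 0% means no effect; nearly all actives have a fitted effect of over 45% in size; -100% = wells without RanGTP and RCC1; the record marks most hits as doubtful in a second field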
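Recombinant Rango FRET biosensor (EYFP–snurportin 1 IBB–cerulean CFP10) at 0.1 uM premixed with 0.25 uM importin beta in PBS, 1 mM DTT, 0.02% Tween-20, 0.1% BSA. Compound added 5 min; RanGTP-RCC1 (0.6 uM Ran, 2 mM GTP, 0.2 uM RCC1) then triggers release, read at 45 min.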
Rango-impB inh – qHTS Assay for Inhibitors of Rango (Ran-regulated importin-beta cargo) - Importin beta complex formation | Rango CFP/YFP FRET sensor + importin beta, 45 min | actives 0.031% (n = 340,000) | Potency, µM (highest dose often 92.2 µM), without a hit: top-dose inhibition of complex formation; active = rising FRET ratio curve, often small or poorly fitted; inconclusive = mostly compound fluorescence or quenching in the first reads; inactive = flat curves in all reads;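 further: potency means the concentration at half of the fitted maximal effect; 0% = DMSO wells and 100% = buffer wells lacking importin beta; nearly all actives have a fitted effect of over 15% in size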
Target sequence (Q14974 whole entry, looked up): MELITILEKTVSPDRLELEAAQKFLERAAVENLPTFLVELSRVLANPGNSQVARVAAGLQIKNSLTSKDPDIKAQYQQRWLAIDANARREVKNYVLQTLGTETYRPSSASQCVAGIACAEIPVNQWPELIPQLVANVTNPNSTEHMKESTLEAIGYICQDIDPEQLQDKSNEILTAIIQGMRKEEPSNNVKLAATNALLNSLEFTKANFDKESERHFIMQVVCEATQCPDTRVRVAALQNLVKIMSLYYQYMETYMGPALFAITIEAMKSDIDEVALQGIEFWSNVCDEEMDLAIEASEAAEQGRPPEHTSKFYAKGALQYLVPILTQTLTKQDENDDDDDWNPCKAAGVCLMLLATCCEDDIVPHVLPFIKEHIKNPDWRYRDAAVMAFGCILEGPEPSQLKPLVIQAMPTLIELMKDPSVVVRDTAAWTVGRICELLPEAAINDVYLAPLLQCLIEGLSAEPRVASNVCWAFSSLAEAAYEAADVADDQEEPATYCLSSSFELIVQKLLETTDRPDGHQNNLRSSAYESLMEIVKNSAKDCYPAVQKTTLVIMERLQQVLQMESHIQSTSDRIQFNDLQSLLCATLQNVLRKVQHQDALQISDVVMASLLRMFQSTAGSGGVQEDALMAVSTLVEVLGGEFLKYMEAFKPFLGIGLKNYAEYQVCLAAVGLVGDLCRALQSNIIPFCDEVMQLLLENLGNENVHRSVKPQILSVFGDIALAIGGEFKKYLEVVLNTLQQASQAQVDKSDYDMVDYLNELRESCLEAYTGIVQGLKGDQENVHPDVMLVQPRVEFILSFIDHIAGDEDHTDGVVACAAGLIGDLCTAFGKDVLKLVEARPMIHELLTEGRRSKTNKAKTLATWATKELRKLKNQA
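Inhibition scored from the CFP 486 nm/YFP 530 nm FRET ratio 45 min after adding 0.125 microM importin beta to 50 nM Rango biosensor preincubated 5 min with compound (room temperature, PBS with DTT, Tween-20, BSA). No-importin wells as positive control.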
GLA inh pH 4.5 – qHTS Assay for Inhibitors of Human alpha-Galactosidase at pH 4.5 | activity change, negative = inhibition, % at 105 µM | 230,000 tested, under 10 active | Alpha-galactosidase A (Homo sapiens), P06280 | AID 1467, 2008 | purified enzyme, 4-MU-alpha-Gal fluorescence, pH 4.5; inconclusive = small, poorly fitted or top-dose-only inhibition, or a rising curve; inactive = flat fitted curve, though single readings scatter; no compound was filed as active;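 further: 0% = full activity with enzyme and -100% = basal without enzyme; dose as in the result columns while the protocol names 77 µM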
* hit, by the source's call; ? = inconclusive; · = not tested or not shown; & = joins results of further samples. These rows are one share of the data; count on the stated rates, not on these rows.

Results follow in this order: miR-21 reporter	Rango dissoc inh	Rango-impB inh	GLA inh pH 4.5
CCOC(=O)N1CCN(C(=O)c2ccc3c(c2)N(Cc2cc(C)ccc2C)C(=O)c2ccccc2S3=O)CC1 (centres undefined)
    26%&22%	-17%	-0.5%	·
Cc1ccc(-c2c(C#N)c(N)n3c(nc4ccccc43)c2C#N)cc1
    -10%	?	?	-9
Cc1cc(NC(=O)CSc2nc(=O)cc(N)n2-c2ccc(F)cc2)no1
    -3%	-1%	-1.3%	·
CC(=O)c1cc2ccccc2oc1=O
    ·	0%	-1.5%	0
O=C1CCCCC1
    ·	8%	-0.8%	·
CC(=O)Nc1ccc(NC(=O)Cn2cnc(S(=O)(=O)N3CCOCC3)c2)cc1
    0%	-3%	-1.7%	·
CCOC(=O)c1sc(Nc2nc3c(F)cccc3s2)cc1C
    -29%	?	?	1
CC(=O)c1cnn(-c2nc3c(C)cccc3s2)c1C
    -5%	-8%	2.2%	-3
COc1cc(NS(=O)(=O)c2ccc(NC(=O)/C(=C/c3ccccc3Cl)NC(=O)c3ccccc3)cc2)nc(OC)n1
    -8%	38%	-5.2%	-4
O=C(O)/C=C\C(=O)Nc1ccccc1C(=O)N1CCN(c2ccc(Cl)cc2)CC1
    -5%	-7%	-1.1%	0
CC(C)Cc1cc(-c2ccco2)c(C#N)c(N)n1
    -14%	-5%	?	8
O=C1c2ccccc2CN1c1ccccc1
    -51%	2%	-0.9%	·
O=C(c1cccs1)N(Cc1cccc(Cl)c1)C1CCS(=O)(=O)C1 (centres undefined)
    -5%	1%	-2.0%	4
CC(C)OC(=O)CSc1nc(Cc2ccccc2)nc2ccccc12
    -5%	-7%	-0.4%	-1
CCN(CCCNc1ncnc2nc[nH]c12)c1cccc(C)c1
    3%	17%	0.5%	3
Cc1nnc(N/N=C/c2ccccc2O)n1N
    -9%	2%	-2.3%	-1
CCOC(=O)Nc1nc2ccc(Cn3cccc3)cc2[nH]1
    ·	1%	4.5%	·
CCc1nn2c(=O)cc(N3CCN(c4cc(C)nc5ccccc45)CC3)nc2s1
    -7%	·	·	2
CC1(C)CC2CC(C)(CN2S(=O)(=O)c2ccccc2[N+](=O)[O-])C1 (centres undefined)
    ·	2%	4.7%	·
O=C(O)c1cc(-c2cccs2)nn1-c1cccc(Cl)c1
    -7%	2%	1.7%	-11
O=C1C2CC=C(Cl)CC2C(=O)N1CC1Cc2ccccc2CO1 (centres undefined)
    -22%	?	?	3
CCc1ccc(OCC(=O)NNC(=O)c2cc3ccccc3o2)cc1
    -1%	5%	-1.7%	-17
COc1ccc(Cl)cc1NC(=O)[C@@H]1CCCN1C(=O)c1cccs1
    -5%	5%	2.1%	3
CCCCCCCCOC(=O)/C=C/c1c(C)[nH]c(=O)[nH]c1=O
    -8%	7%	0.1%	1
Cc1cccn2c(CNCCCn3ncc4ccccc43)c(C(=O)N3CCCCC3)nc12
    -10%	-3%	-2.1%	0
CN(C)c1ccc(NS(=O)(=O)c2cc(Cl)ccc2Cl)cc1
    -3%	-2%	2.7%	5
COc1ccc(NC(=O)c2cc(=O)c3ccccc3o2)cc1Cl
    -7%	-7%	6.8%	·
CC1CCN(S(=O)(=O)c2ccc(S(=O)(=O)NCc3ccco3)cc2)CC1
    -20%	1%	-4.6%	1
O=C(CCn1cccc1)N1CCc2ccccc21
    -36%	-6%	0.1%	11
CCCCC1(CC(=O)OCC)C(=O)N(c2ccccc2)N(c2ccccc2)C1=O
    -1%	5%	0.3%	-2
O=C(CSc1nc2ccccc2c(=O)n1-c1ccc(F)cc1F)c1c[nH]c2ccccc12
    -3%	-8%	1.0%	-8
CC12CCC(=O)N1C(C(=O)Nc1ccc(F)c(Cl)c1)CS2 (centres undefined)
    ·	32%	10%	·
C=C(CN(C)C)C(=O)c1cc(OC)c(OC)cc1OC
    ·	24%	-0.1%	·
O=c1c(Cl)c(NCc2ccc(F)cc2Cl)cnn1C12CC3CC(CC(C3)C1)C2
    -4%	-7%	-0.1%	-8
Cc1ccc(NC(=O)C2CCC(C(C)(C)C)CC2)cc1S(=O)(=O)N1CCOCC1 (centres undefined)
    ·	28%	7.4%	·
CCC(C)OC(=O)C1C(c2ccccc2)C(C(=O)O)C1c1ccccc1 (centres undefined)
    0%	-13%	5.7%	15
COc1ccc(-c2oc3ccccc3c2C#Cc2cncn2C)cc1
    ·	3%	-1.5%	·
CC(C)NC(=O)/C(=C\c1cccc([N+](=O)[O-])c1)NC(=O)c1ccccc1
    -4%	1%	2.4%	-3
Cc1cccc(C)c1OCc1nc2ccccc2[nH]1
    3%	9%	-0.3%	2
COc1cc(NC(=O)CCN2CCN(C)CC2)cc(OC)c1
    0%	2%	-1.3%	·
Cc1ccc(C(C)C)c(OCCN)c1
    -1%	13%	1.6%	0
CC(OC(=O)C1=COCCO1)C(=O)Nc1ccc(Cl)cn1 (centres undefined)
    ·	12%	-0.2%	·
CC1OC(O[C@H]2CC[C@]3(C)C4C=C[C@]56OC[C@@]7(CC[C@@H](C)[C@H](C)C75)[C@H](O)C[C@@]6(C)[C@]4(C)CC[C@H]3C2(C)C)C(OC2OC(CO)C(O)C(O)C2OC2OCC(O)C(O)C2O)C(O)C1O (some centres undefined)
    2%	·	·	-20
Cc1ccc2c(c1)C(=O)C(=O)N2c1ccc(Cl)cc1
    ·	?	?	·
N#C/C(=N\Nc1ccccc1Cl)C(=O)c1ccccc1
    -10%	0%	0.0%	-6
COc1ccc(-c2oc3ccc(-c4cc(OC)c(OC)c(OC)c4)cc3c2C#Cc2ccccn2)cc1
    ·	10%	1.3%	·
Cc1ccc(S(=O)(=O)Oc2ccc(/C=C(/NC(=O)c3ccccc3)C(=O)NCC(=O)O)cc2)cc1
    -2%	?	?	-3
O=C(Nc1cccc(Cl)c1Cl)C1CCN(c2ncccn2)CC1
    -1%	21%	0.0%	5
Cc1nc2ccccc2c(C)c1C(=O)c1ccc(F)cc1
    12%	3%	-3.1%	-8
COc1ccccc1N(CC(=O)NCCc1ccccc1)C(=O)CCC(=O)Nc1cc(C)ccn1
    5%	17%	2.2%	·
CCOC(=O)c1cc(C)n(Cc2ccccc2)c1C
    -25%	2%	-3.8%	1
Cc1[nH]n(-c2ccc(Cl)cc2)c(=O)c1N=Nc1cccnc1
    -6%	-3%	-1.4%	-2
Cc1ccc(S(=O)(=O)N2CCCN(C)c3nc4ccccc4nc32)cc1
    ·	?	?	·
Cc1ccccc1NC(=S)N(CCc1c(C)[nH]c2ccc(F)cc12)Cc1ccncc1
    22%	-1%	0.6%	-4
O=c1[nH]n2c(-c3ccccc3)nc(O)c2c2ccccc12
    1%	-4%	-0.2%	6
O=C(NNS(=O)(=O)c1ccc(C(=O)NC2CCCC2)cc1)c1ccncc1
    -1%	14%	-0.1%	7
CC1CC(C)CN(C(=O)COC(=O)C2CCN(S(=O)(=O)c3c(Cl)cccc3Cl)CC2)C1 (centres undefined)
    ·	9%	-1.4%	·
CCOC(=O)c1cc2c(=O)n3cc(C)ccc3nc2n(Cc2cccnc2)c1=N
    -5%	·	·	2
Cc1cccc(OCCCN2CCOCC2)c1C
    -10%	2%	1.6%	·
COc1ccc2nc(NC(=O)c3cccc(OCc4c(C)noc4C)c3)sc2c1
    27%	0%	-0.8%	-4

Another view of some results above.
Molecule: O=c1c(Cl)c(NCc2ccc(F)cc2Cl)cnn1C12CC3CC(CC(C3)C1)C2
- miR-21 reporter: -4%
- Rango dissoc inh: -7%
- Rango-impB inh: -0.1%
- GLA inh pH 4.5: -8

Molecule: Cc1ccc(NC(=O)C2CCC(C(C)(C)C)CC2)cc1S(=O)(=O)N1CCOCC1 (centres undefined)
- miR-21 reporter: ·
- Rango dissoc inh: 28%
- Rango-impB inh: 7.4%
- GLA inh pH 4.5: ·

Molecule: CCC(C)OC(=O)C1C(c2ccccc2)C(C(=O)O)C1c1ccccc1 (centres undefined)
- miR-21 reporter: 0%
- Rango dissoc inh: -13%
- Rango-impB inh: 5.7%
- GLA inh pH 4.5: 15

Molecule: COc1ccc(-c2oc3ccccc3c2C#Cc2cncn2C)cc1
- miR-21 reporter: ·
- Rango dissoc inh: 3%
- Rango-impB inh: -1.5%
- GLA inh pH 4.5: ·

(more compounds)
Results follow in this order: miR-21 reporter	Rango dissoc inh	Rango-impB inh	GLA inh pH 4.5
Cc1ccc(NC(=O)COC(=O)C2CC2C)c(S(=O)(=O)N2CCCCC2)c1 (centres undefined)
    4%	-13%	-3.6%	1
Cc1ccc(N(CC(=O)Nc2cc(Cl)ccc2Oc2ccccc2)S(C)(=O)=O)c(C)c1
    12%	-18%	0.0%	-26
CCOC(=O)c1ccccc1-n1nnnc1C
    3%	2%	3.9%	1
CN1C(=O)CS/C1=N\NC(=O)COc1cccc2cccnc12
    1%	4%	5.6%	-4
N#CCCSc1ccccc1NC(=O)c1cc(=O)c2ccccc2o1
    3%	9%	2.9%	·
O=c1[nH]c(C2CCCN(S(=O)(=O)c3ccccc3Cl)C2)nc2c1nnn2Cc1ccc2c(c1)OCCO2 (centres undefined)
    -17%	0%	0.7%	·
CCOc1ccc(OCCOCCN2CCOCC2)cc1
    0%	-2%	2.5%	-7
O=C(CC1C(=O)NCCN1Cc1ccccc1C(F)(F)F)NC1CCCCC1 (centres undefined)
    2%	-16%	-4.9%	·
Cc1cc(C)c(S(=O)(=O)Nc2ccc(N3CCOCC3)cc2)c(C)c1
    -3%	24%	-1.9%	2
O=c1cc(CN2CCN(c3ccc(F)cc3)CC2)c2cc3c(cc2o1)CCCC3
    -1%	-3%	2.2%	-11
O=C(O)c1nn(-c2ccc(F)cc2)ccc1=O
    0%	-9%	-3.4%	·
COc1ccc(C(=O)CSc2nnc(-c3ccco3)o2)cc1
    -9%	-23%	-0.6%	6
COc1cccc2c(N/N=C/c3ccc(O)c(O)c3)cc(C)nc12
    -41%	8%	0.0%	·
CCOc1ccc(C(=O)CSCC(=O)O)cc1
    -2%	15%	-3.6%	7
COC(CNC(=O)c1ccc2c(c1)ncn2-c1cc(C)cc(C)c1)OC
    -24%	-1%	2.1%	·
O=C(CCN1C(=O)/C(=C/c2cccc(Br)c2)SC1=S)NNC(=O)c1cccnc1
    -1%	5%	1.3%	-24
COC(=O)c1ccc(NC(=S)Nc2cccc(C)n2)cc1
    -9%	-7%	4.9%	1
Nc1nonc1-n1nnc(C(=O)N/N=C/c2ccccc2O)c1CN1CCCC1
    ·	-8%	-0.2%	·
CCOc1ccccc1CN1CCN(Cc2cccc3c2OCO3)CC1CCO (centres undefined)
    0%	-11%	-3.2%	-5
O=C1NCCN1c1ncc([N+](=O)[O-])s1
    ·	31%	-0.9%	-3
Cc1ccc(CN(Cc2ccco2)C(=S)NCC(=O)NCc2cccnc2)cc1
    1%	-17%	-4.3%	-4
Nc1nc(NCc2ccco2)nc(N2CCOCC2)c1[N+](=O)[O-]
    6%	32%	-1.8%	-5
